gsp agonist: agonists of gsp mutant (McCune-Albright syndrome); AID 624287; Potency, µM (doses to about 76.9 µM), inactives show at the top dose activation (cAMP increase), usual class: activators; gsp mutant cells, cAMP HTRF, 30 min; control for the full effect not named in the record; 340,000 tested, 0.13% active; active = well fitted activation curve with a large enough effect; inconclusive = small, poorly fitted or top-dose-only effect, or another doubt; inactive = no such curve, though single readings can be large or run the other way; cell line not stated here;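 also: phosphodiesterase inhibitor Ro 20-1724 added with compounds to block cAMP breakdown; potency is read from the fitted curve at half-maximal effect; nearly all actives have a fitted effect of over 60% in size; about a fifth of the inactives were tested at one dose only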
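Cells in DMEM/10% FBS with G418 were pretreated with compounds in DMSO plus […] (300 uM stock) for 30 min at 37C. cAMP was measured by HTRF (cAMP-d2 plus anti-cAMP antibody-K) after 30 min at room temperature.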
PINK1 expr mod: PINK1 expression modulation. PINK1 immunofluorescence, high-content cytometry, 24 h. Potency, µM (top dose mostly 76.6 µM), for inactives: at the top dose activation (PINK1 increase), actives largely listed as activators. 410,000 tested, 0.2% active. AID 624263; active = well fitted activation curve with a large enough effect; inconclusive = small, poorly fitted or top-dose-only effect; inactive = flat fitted curve, though single readings scatter; cell line not stated here;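 also: potency is read from the fitted curve at half-maximal effect; % of control where 0% means no effect; nearly all actives have a fitted effect of over 65% in size; a mitochondrial uncoupler was the plate control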
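Decision-based qHTS: stable cells, 24 h exposure to five compound concentrations, CCCP as control. Fixed cells stained for PINK1 plus nuclear, mitochondrial and cell markers, cytometer read.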
Sfp PPTase inh: Sfp phosphopantetheinyl transferase inhibition. Q9F4F7. Biochemical Sfp PPTase activity, qHTS. Potency, µM, for inactives: max response, negative = inhibition, actives largely listed as inhibitors. 310,000 tested, 3.5% active. AID 1490; active = well fitted inhibition curve with a large enough effect; inconclusive = small, poorly fitted or top-dose-only effect, or another doubt; inactive = no such curve, though single readings can be large or run the other way;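 also: the enzyme is Sfp with the accession as filed and its product quenches rhodamine fluorescence; potency is read from the fitted curve at half-maximal effect; 0% = enzyme reaction without inhibitor and -100% = no enzyme wells; top concentration of the series not given in the record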
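Fluorescence-quenching assay with 15 nM Sfp, 5 uM rhodamine-CoA and 12.5 uM BHQ-2-labelled ybbR peptide in pH 7.6 Hepes/MgCl2 buffer. Enzyme was pre-incubated with compound for 15 min at room temperature. Rate was taken from the 30-min fluorescence change (525/598 nm).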
gsp antagonist: antagonizes gsp, the McCune-Albright syndrome mutation; gsp-mutant cells, cAMP HTRF, 30 min; control for the full effect not named in the record; Potency, µM (top dose mostly 76.9 µM), inactives show at the highest dose activity change, negative = inhibition, most hits filed as inhibitors; 340,000 tested, 0.4% active; active = falling curve of any shape with a large fitted effect; inconclusive = falling curve, mostly with a smaller effect; inactive = flat or rising curve; cell line not stated here;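 also: intracellular cAMP measured with PDE inhibitor Ro 20-1724 present during compound exposure; potency is read from the fitted curve at half-maximal effect; % is scaled to controls: 0 for no effect and ±100 for the full control effect; nearly all actives have a fitted effect of over 65% in size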
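Cells in G418 medium, seeded 16-24 h, 37C; buffer exchange to DPBS + 1 mM CaCl2, 0.5 mM MgCl2, 0.05% BSA; cpds in DMSO + […] (300 uM stock), 30 min 37C; HTRF cAMP detection.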
D2 agonist: agonists of human D2 dopamine receptor (beta-arrestin); P14416; 360,000 tested, 0.084% active; activation, % (concentration not given with the values); AID 624465; DiscoveRx PathHunter D2 beta-arrestin, luminescence, 90 min; 100% = 57 uM dopamine signal; in the data active = activation above about 40%; inconclusive = about 15% to 40%; inactive = below about 15%; also: compound concentration not given in the record; the text of the record calls up to 30% inactive
Target sequence (P14416 whole entry, looked up): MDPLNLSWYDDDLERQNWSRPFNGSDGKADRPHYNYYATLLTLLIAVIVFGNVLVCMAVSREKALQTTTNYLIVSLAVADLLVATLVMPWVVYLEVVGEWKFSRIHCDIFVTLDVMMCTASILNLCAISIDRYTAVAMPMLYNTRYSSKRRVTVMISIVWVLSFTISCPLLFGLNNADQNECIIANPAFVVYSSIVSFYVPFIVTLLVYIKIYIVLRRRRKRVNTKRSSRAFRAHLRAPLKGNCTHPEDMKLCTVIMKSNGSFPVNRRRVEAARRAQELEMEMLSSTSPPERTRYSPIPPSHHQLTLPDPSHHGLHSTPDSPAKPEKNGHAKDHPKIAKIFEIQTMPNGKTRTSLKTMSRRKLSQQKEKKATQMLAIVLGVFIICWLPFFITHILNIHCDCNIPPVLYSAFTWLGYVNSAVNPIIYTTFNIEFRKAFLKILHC
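DiscoveRx PathHunter D2 beta-arrestin cells (2,100/well) attached overnight, then compound-stimulated 90 min at 37 C in HBSS/10 mM HEPES/0.1% Tween-20 buffer; beta-galactosidase complementation read by luminescence after 1 h at ambient temperature. Dopamine 57 uM final (EC100) as control.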
Menin-MLL FL inh: menin-MLL binding inhibition, fluorescein peptide | Fluorescence polarization, fluorescein-MLL peptide displacement from menin | FP activity change, % at 61.4 µM | 290,000 tested, under 10 active; inconclusive = falling polarisation curve, or a change in total fluorescence; inactive = total fluorescence flat and polarisation flat or rising; no compound was filed as active; the % refers to the polarisation; negative = inhibition;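 also: % of control where 0% means no effect; inhibitors lower the polarisation; unlabelled MLL peptide was the positive control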
ClpP mod: qHTS Assay for Activators of ClpP; Potency, µM (highest dose often 57.5 µM), for the others: at the top dose activity change, negative = active; purified B. subtilis ClpP, FRET peptide cleavage, 20 min; 340,000 tested, 1.9% active; ATP-dependent Clp protease proteolytic subunit (Bacillus subtilis (strain 168)), P80244; active = well fitted falling curve with a large enough effect; inconclusive = small, poorly fitted or top-dose-only effect; inactive = no such curve, though single readings can be large or run the other way; also: potency is read from the fitted curve at half-maximal effect; the source files actives as falling curves though it sought activators and does not explain the sign; nearly all actives have a fitted effect of over 65% in size; many hits overshoot -100%
Target sequence (P80244 whole entry, looked up): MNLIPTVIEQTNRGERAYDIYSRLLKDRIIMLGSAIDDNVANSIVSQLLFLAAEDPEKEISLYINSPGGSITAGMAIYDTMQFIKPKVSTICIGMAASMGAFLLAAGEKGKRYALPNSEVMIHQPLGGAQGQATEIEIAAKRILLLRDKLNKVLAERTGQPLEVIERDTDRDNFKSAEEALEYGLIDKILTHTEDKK
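ClpP 10 microg/mL final, pH 8 Tris/KCl buffer with BSA, glycerol, Tween-20; compound pinned in; FRET-FV substrate; RT 20 min; Ex320/Em430; ΔFRET vs ADEP 5.8 microM, DMSO, no enzyme.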
Active calls of the source: *; u = inconclusive; x = no result given; [ ] = another dose, or the depositor's remark.

SMILES	gsp agonist	PINK1 expr mod	Sfp PPTase inh	gsp antagonist	D2 agonist	Menin-MLL FL inh	ClpP mod
COc1ccc(/C=C/c2nc3ccccc3c(=O)n2-c2cccc(C(=O)O)c2)cc1	-18%[15.4 µM]	-1.3%	7%	u	1.6	-13	x
COCCN1C(=O)N[C@@H](c2ccco2)C(C(=O)OC)=C1C	x	1.3%	u	10%	-1.1	6.2[11.7 µM]	-1.5%
O=C(NC1CCCCC1)c1ccc(CS(=O)(=O)c2ccc(Cl)cc2)o1	17%	-0.7%	7%	-2%	-3.9	x	-1.2%
c1ccc2c(c1)OC1OC2Oc2ccccc21	-20%	5.4%	x	1%	1.3	x	-2.5%
CCCN(CC(=O)Nc1ccccc1OC)C(=O)Cc1ccc2c(c1)CCC2	-6%	2.4%	x	u	-1.7	x	-1.7%
C=C1CCC[C@]2(C)C[C@H]3OC(=O)C(CN4CCCCC4CO)[C@H]3CC12 (stereo partly specified)	-10%[15.4 µM]	-4.0%	-6%	18%	-1.8	0.1	u
CNc1cc(-n2nc(C)cc2-c2ccccc2)ncn1	-28%	0.7%	-11%	-8%	-1.7	1.9	-5.5%
CCC(C)n1ncn(-c2ccc(N3CCN(c4ccc(OC)cc4)CC3)cc2)c1=O (stereo unspecified)	u	1.1%	u	4%	-6.6	2.7	-1.8%
Fc1ccc(CNC(=S)Nc2cccc(Cl)c2)cc1	-32%[inhibitor]	u	0%	-5%	1.7	6.3	-2.0%
COc1cc(C(=O)NCc2ccc(C)cc2)ccc1OC(F)F	0%	0.5%	15%	3%	-3.5	2.5	-2.1%
CCCCC(=O)C1=C(N2CCCC2)CC(C)(C)CC1=O	13%[15.4 µM]	0.2%	x	3%	-1.1	x	-0.9%
CCCN1CCN(C(=S)Nc2sc(CC)cc2C(=O)OC)CC1	0%	1.6%	-5%	-13%	-1.2	-2.9	-0.7%
COc1ccc(OC)c(Cc2nnc(CCC(=O)NC3CCCC3)o2)c1	7%[15.4 µM]	1.0%	2%	10%	-3.8	-2.2	x
Cc1nn(C)cc1CNC(=O)Nc1ccc(Cl)cc1	-14%	0.7%	13%	-20%	-4.0	6.0	4.6%
Clc1ccc2nc(CSc3nncn3-c3ccccc3)cn2c1	u	-2.4%[38.3 µM]	19%	0%	-2.9	3.7	-1.4%
COc1ccccc1NC(=O)c1nn(-c2ccc(OC(F)(F)F)cc2)ccc1=O	0%	4.4%	12%	7%	-2.2	-1.1	0.6%
CCOc1ccccc1CN(Cc1ccco1)S(=O)(=O)c1ccc(-n2cnnn2)c(OC)c1	-22%	-0.3%[38.3 µM]	9%	-13%	-1.1	12	-2.1%
CC(C)(C)OC(=O)CC1(C#N)c2ccccc2C(Br)=CN1C(=O)c1ccccc1 (stereo unspecified)	-2%	2.5%	x	-27%	-2.0	x	-1.8%
Cn1cccc1/C=N/NC(=O)Cc1ccccc1	11%	1.3%	-15%	4%	1.1	21	x
O=C(Nc1cc([N+](=O)[O-])ccc1N1CCCC1)c1ccccc1	-6%[15.4 µM]	2.0%	9%	-27%	-2.9	0.3	1.2%
CCc1noc(C)c1C(=O)Nc1cc(S(=O)(=O)N(CC)CC)ccc1N1CCCC1	5%	0.4%	x	-2%	-1.5	x	0.4%
Cc1ccc2c(c1)N(C(=O)CCC(=O)NCc1cccc(Br)c1)CC(C)O2 (stereo unspecified)	7%	-0.1%	22%	-13%	-2.0	-0.4	-0.9%
COc1ccccc1Cn1c(CCCO)nc2ccccc21	-57%[inhibitor]	-3.7%	-5%	10%	-0.6	-1.1	-0.5%
COC(=O)c1c(NC(=O)Cn2cnc([N+](=O)[O-])n2)sc2c1CCC(C)C2 (stereo unspecified)	14%	0.8%	32µM*	-9%	2.1	-0.9	1.2%
CC(=O)NC(=S)Nc1ccc(S(=O)(=O)N(C)Cc2ccccc2)cc1	1%[15.4 µM]	-0.5%	-7%	u	0.4	4.6	x
COc1cccc(-c2csc(N3CCN(C(=O)Nc4ccc(F)cc4)CC3)n2)c1	-4%	-2.8%	12%	u	2.8	-0.5	-2.8%
CC(=O)Nc1nc2cc(N)ccc2s1	5%	-1.2%	x	0%	1.8	x	-1.5%
Cc1ccccc1-c1cnc(C(O)c2ccccc2)[nH]1 (stereo unspecified)	x	3.1%	x	x	-2.5	x	-2.4%
O=C(C1=C[C@H](C2CCCCC2)C[C@H](OCc2ccc(CO)cc2)O1)N1CCN(Cc2ccccc2)CC1	8%	1.1%	-13%	-10%	-1.3	3.7	0.6%
COc1ccc(NC(=O)Cn2ncn3c(cc4ccccc43)c2=O)c(OC)c1OC	-19%	7.2%	15%	-3%	2.7	x	-9.0%
Cc1ccc(S(=O)(=O)NCCCN(C)C)cc1	5%	-0.1%	10%	1%	-0.5	1.5	-2.2%
Cc1ccc(C(=O)N/C(=C\c2ccco2)C(=O)N2CCSCC2)cc1C	14%	-1.9%	-12%	-12%	2.3	3.1	x
CSc1ccc(/C=C/C(=O)OCC(=O)N2CCN(S(=O)(=O)c3ccc(C)cc3C)CC2)cc1	-12%	0.3%	x	9%	3.5	x	3.2%
COc1ccc(C(=O)Nc2ccc3c(c2)C(=O)c2ccccc2C3=O)cc1OC	10%	-1.1%	-6%	7%	5.6	20	-16%
O=C(NCc1cccs1)c1cc(-c2ccccn2)nc2ccc(Br)cc12	12%[15.4 µM]	16%	-25%	-20%	-3.4	2.9	x
OC[C@@H]1CCCN1Cc1cn(-c2ccccc2)nc1-c1ccc2c(c1)OCO2	-21%	-0.2%	3%	7%	-15	-3.0	3.9%
CC(C(=O)NC1CCCCC1)N(Cc1ccc(F)cc1)C(=O)c1snc(C(N)=O)c1N (stereo unspecified)	18%[15.4 µM]	-0.7%	12%	-36%	0.4	x	x
CCCCn1c(SCC(=O)Nc2cc(C)[nH]n2)nc2ccsc2c1=O	-41%[inhibitor]	3.7%[38.3 µM]	16%	-4%	-0.5	2.3	-0.8%
OCCCCNCc1ccc(OCc2ccc(Cl)cc2)cc1	7%	x	-4%	8%	-0.5	0.5	-2.0%
Cc1c(S(=O)(=O)N2CC(C)CC(C)C2)c(=O)n(C)c(=O)n1C (stereo unspecified)	23%	1.9%	18%	0%	-2.0	x	-12%
CSc1ccccc1NC(=O)COC(=O)c1ccccc1Cc1ccccc1	0%	2.5%	2%	-10%	-0.8	7.0	-6.6%
Cc1cc(NC(=O)CN2CCCCC2)n(-c2ccccc2)n1	11%	-0.5%	-4%	11%	-2.3	1.7	0.2%
CCN(CC)S(=O)(=O)c1ccc(C(=O)N2CCN=C2SCc2cccnc2)cc1	-30%	-0.9%	5%	-9%	1.6	1.3	-1.5%
Cc1[nH]c(C)c(S(=O)(=O)N2CCN(c3cccc(C(F)(F)F)c3)CC2)c1C(=O)N1CCCCC1	-6%	1.4%	20%	10%	3.5	-4.5	0.8%
CC(C)(C)c1ccc(C(=O)N2CCC2(C)C(=O)NS(=O)(=O)c2ccccc2Cl)cc1 (stereo unspecified)	x	-0.6%	x	x	6.4	x	0.3%
Cc1cc(C)c2c(CC(=O)NC(C)C)coc2c1	-18%[15.4 µM]	3.3%	17%	4%	-1.0	2.3	x
COC(=O)c1ccc(N2CCOCC2)c(NC(=O)c2cccnc2)c1	-1%[15.4 µM]	0.7%	20%	4%	1.7	0.6	3.0%
CCN(CC)c1ccc(/C=N/NC(=O)CNC(=O)c2cccnc2)cc1	u	4.5%	6%	-7%	13	-5.4	x
Clc1ccc2c(c1)C=Nc1c(NCc3ccccc3)ncnc1O2	-4%	0.6%	1%	-4%	-1.4	2.2	-1.6%
CCc1nc2ccc(C(=O)NCCc3ccc(OC)cc3)cc2nc1CC	5%	-0.5%	0%	-14%	0.3	x	-0.4%

(listing goes on)
SMILES	gsp agonist	PINK1 expr mod	Sfp PPTase inh	gsp antagonist	D2 agonist	Menin-MLL FL inh	ClpP mod
Cc1ccccc1N1CCN(C(=O)[C@@H]2CCCN2C2=NS(=O)(=O)c3ccccc32)CC1	-25%	-0.5%	x	-2%	-2.3	x	0.9%
C=CCN1CN(S(=O)(=O)c2cccc(Cl)c2)c2nc3ccccc3nc21	-10%	0.2%	0%	1%	8.4	9.8	-12%
COc1ccc(C)cc1NC(=O)C12CCC(C)(C(=O)O1)C2(C)C (stereo unspecified)	-34%[inhibitor]	-0.6%	4%	-3%	-1.3	-2.1	-1.7%
C(=C1c2ccccc2-c2ccccc21)c1ccncc1	-2%[15.4 µM]	-1.0%	x	-19%	-3.1	x	1.5%
C=CC[C@@H](CC(=O)N[C@H](CO)Cc1ccccc1)C(=O)N[C@@H](COC(=O)[C@@H](CC=C)Cc1ccc(F)cc1)Cc1ccccc1	x	-0.6%	x	-4%	-2.4	x	-1.4%
COc1ccc(NC(=O)c2cc([N+](=O)[O-])ccc2N2CCCCC2)cc1OC	15%[15.4 µM]	-0.4%	x	-6%	-1.1	x	-6.4%
O=C(C1CC1)N1CCc2cc(Br)cc(S(=O)(=O)NCC3COc4ccccc4O3)c21 (stereo unspecified)	16%	-0.6%	-7%	u	-1.4	1.0	-0.6%
COc1ccc(CSc2nc(C)cc(C)c2C#N)cc1	22%[15.4 µM]	-0.3%	u	-1%	1.4	5.0	x
CCN(Cc1ccccc1)C(=O)c1cccs1	11%	0.6%	x	x	1.4	x	0.9%
C=CCNc1nc(Nc2ccc(Cl)cc2)nc(OC)n1	6%[15.4 µM]	-0.3%	7%	4%	-4.7	-3.1	x
CC(Oc1ccc2ccccc2c1)C(=O)NNC(=S)NC(=O)c1ccco1 (stereo unspecified)	9%	-0.8%	11%	3%	-8.2	4.3	0.9%
O=C(O)CCCC(=O)Nc1ccc2c(c1)oc1ccccc12	-24%	2.8%	3%	-13%	-2.0	-2.1	-1.8%
O=c1c2[nH]c3ccc(F)cc3c2ncn1CC1CCCO1 (stereo unspecified)	4%[15.4 µM]	-0.6%	-2%	4%	-1.4	-3.5	x
c1ccc(CN2CCN(c3nc4ccccc4n4cnnc34)CC2)cc1	u	1.1%	-3%	-2%	-5.1	0.0	-5.7%
